# Source: PubChem
# KCNQ2 block – KCNQ2 potassium channel inhibitors, primary screen, cell-based, CHO-K1, FluxOR thallium flux, B-score (AID 2156); Potassium voltage-gated channel subfamily KQT member 2 (Rattus norvegicus), O88943; B-score at 10 µM; 20 min; hits give low values; only compounds with negative scores are shown here; some inactives read as strong as hits; 310,000 compounds, 1.1% hits;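 active means fluorescence ratio B-score at most minus 3 library SDs, with starting brightness B-score within 2 library SDs, cut at about -5.5 in these data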
# Target sequence (O88943 whole entry, looked up): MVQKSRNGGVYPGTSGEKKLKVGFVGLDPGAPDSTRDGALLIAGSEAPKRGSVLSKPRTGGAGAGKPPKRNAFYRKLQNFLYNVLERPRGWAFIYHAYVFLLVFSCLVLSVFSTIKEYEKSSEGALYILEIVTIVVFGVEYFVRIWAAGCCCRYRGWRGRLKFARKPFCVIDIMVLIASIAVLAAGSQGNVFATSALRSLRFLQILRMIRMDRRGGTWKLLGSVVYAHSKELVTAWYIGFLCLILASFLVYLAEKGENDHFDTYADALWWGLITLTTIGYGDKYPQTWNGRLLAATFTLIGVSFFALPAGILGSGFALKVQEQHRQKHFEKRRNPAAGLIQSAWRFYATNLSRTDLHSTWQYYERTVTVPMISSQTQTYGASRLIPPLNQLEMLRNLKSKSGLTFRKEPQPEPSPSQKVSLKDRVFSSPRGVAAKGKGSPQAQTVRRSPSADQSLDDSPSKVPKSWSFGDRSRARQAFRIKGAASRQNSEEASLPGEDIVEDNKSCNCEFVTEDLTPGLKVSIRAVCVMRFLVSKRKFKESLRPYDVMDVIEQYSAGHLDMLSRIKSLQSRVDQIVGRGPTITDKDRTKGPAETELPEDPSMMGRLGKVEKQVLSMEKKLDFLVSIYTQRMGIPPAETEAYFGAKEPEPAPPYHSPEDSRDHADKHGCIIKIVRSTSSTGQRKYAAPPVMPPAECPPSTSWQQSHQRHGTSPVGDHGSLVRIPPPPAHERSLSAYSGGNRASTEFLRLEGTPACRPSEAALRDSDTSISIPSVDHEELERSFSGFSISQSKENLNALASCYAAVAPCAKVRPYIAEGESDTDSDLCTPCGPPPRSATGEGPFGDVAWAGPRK
# KCNQ2 block baseline – also measured in KCNQ2 block; calls as there; B-score; measured here: initial fluorescence intensity artifact check;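 brightness before thallium and not channel activity; 0 = typical well and far values either way flag optical interference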
# Starred values were filed as active, the others as inactive; i = inactive. This is a subset; rates above refer to the full screens.
SMILES | KCNQ2 block | KCNQ2 block baseline
COc1cccc(CN(C)C(=S)Nc2cccc(C)c2)c1 | i | 1.5
O=[N+]([O-])c1c(NCc2ccccc2)cc(N2CCc3ccccc3C2)c2nonc12 | i | 0.4
CC(C)COc1ccc(CSCCNC(=S)Nc2ccccc2)cc1 | i | -2
CCOC(=O)c1sc2nc(C)c3c(c2c1N)CC(C)(C)OC3 | i | -0.44
O=c1[nH]c(C2CCN(S(=O)(=O)/C=C/c3ccccc3)CC2)nc2c1nnn2Cc1ccc(F)cc1 | i | -1.2
CC(=O)NC1=NN(C(C)=O)C(C)(c2ccco2)S1 (stereo not drawn) | i | -0.37
N#Cc1ccc(CSc2nnc(NC(=O)c3ccc4ncsc4c3)s2)cc1 | i | 3.4
CCN(CC)S(=O)(=O)c1ccc(NC(=O)Nc2cccc(C(F)(F)F)c2)cc1 | i | -0.55
O=[N+]([O-])c1ccc(CCNc2cccc3ccccc23)c([N+](=O)[O-])c1 | i | 0.31
COc1ccc(CNC(=O)c2cc(-c3cccs3)on2)cc1 | i | -0.59
NC(=O)CNC(=O)c1cccc(Cl)c1 | i | 0.86
CCOC(=O)c1cc(-c2ccc(C#N)cc2)nc2c1c(C)nn2CCC#N | i | -0.84
N#Cc1cnc2cc(-c3ccccc3)nn2c1N | i | 1.3
CCOC(=O)c1nc2c(ccc3ccccc32)cc1C | i | -4
CCc1cc2c(=O)n(Cc3ccco3)c(SCC(=O)NC3CCS(=O)(=O)C3)nc2s1 (stereo not drawn) | i | -1.3
COc1ccc(CCCC(=O)Nc2ccc(F)cc2)cc1 | i | -1.1
O=C(Nc1ccc2nc(C3CC3)n(Cc3ccccc3)c(=O)c2c1)C1CC1 | i | -1.6
Cc1cc(/C=N/Nc2nc(N)ncc2[N+](=O)[O-])c(C)n1-c1cccc(C(F)(F)F)c1 | i | -0.1
CC1CCN(CCNC(=S)Nc2ccc(Cl)cc2)CC1 | i | 0.12
CSc1ncc(Cl)c(C(=O)Nc2c(C)cccc2C)n1 | i | -0.12
O=C(N/N=C/c1ccc(OC(=O)c2ccccc2Cl)cc1)c1ccc(O)cc1 | i | 0.67
Cc1c(C(=O)N2CCCC2)oc2c1-c1[nH]ncc1CC2 | i | 0.03
CCC(=O)c1c[nH]c(C(=O)NCc2ccco2)c1 | i | 0.95
CCn1ccnc1CN1CCc2c([nH]c3ccccc23)C1CC(C)C (stereo not drawn) | i | -1.3
CCOc1ccc(S(=O)(=O)N(CC)CC(=O)NCc2cccnc2)cc1C | i | 3.6
COCC1CCCN(Cc2cn(-c3ccccc3F)nc2-c2cc(C)sc2C)C1 (stereo not drawn) | i | 0.71
Cc1ccc(S(=O)(=O)N(C)C)cc1NC(=S)NNC(=O)C(N)=O | i | -0.81
Cn1c(=O)n(-c2cccc(Cl)c2)c(=O)n1C | i | -0.76
COc1ccc(C2Nc3cc(OC)ccc3-n3cccc32)cc1 (stereo not drawn) | i | 0.55
CN(c1ccccc1C(=O)Nc1ccc(F)c(F)c1)S(C)(=O)=O | i | -0.09
C=CCOc1cccc(C2/C(=C(/O)c3ccc(Cl)cc3)C(=O)C(=O)N2CCN2CCOCC2)c1 (stereo not drawn) | i | 0.41
COc1ccc2cc3c(N)c(C(=O)NCc4ccco4)sc3nc2c1 | i | 0.4
Cc1noc(/C=C/c2ccco2)c1S(=O)(=O)N1CCC(C(=O)N2CCc3ccccc3C2)CC1 | i | -1.1
COc1cccc(C2C(C(=O)c3cc4ccccc4o3)=C(O)C(=O)N2c2cc(C)on2)c1 (stereo not drawn) | i | -2.7
C/C(CC(=O)Nc1ccccn1)=N\NC(=O)C(=O)Nc1ccccc1C | i | 0.94
COc1ccc(C(=O)N(Cc2ccccc2)c2cccc(C)c2)cc1 | i | -1.1
CNc1ncc(C(=O)c2ccc(-c3ccccc3)cc2)s1 | i | 1.7
CN(/N=C/c1cc(Cl)cc(Cl)c1O)C(=S)NC(C)(C)C | i | 0.63
CCc1cc2cc3c(cc2nc1SCC(=O)Nc1c[nH]c(=O)[nH]c1=O)OCO3 | i | 0.18
O=C(NC1CCCCC1)c1ccc(S(=O)(=O)NCc2ccco2)cc1 | i | 0.49
Cc1cccc2[nH]c(-c3ccc(NC(=O)c4ccco4)cc3)nc12 | i | -0.02
Cc1cc(Nc2ncc(Cl)cc2Cl)n(-c2ccccc2C)n1 | i | 1.5
CN(C)S(=O)(=O)Nc1cc(F)cc(F)c1 | i | 0.64
COc1ccc(CCNC(=S)Nc2ccc(C(C)C)cc2)cc1 | i | -1
COc1cccc(CN(C)C(=O)COc2ccc(C(=O)c3ccc(Cl)cc3)cc2)c1OC | i | -0.07
CCCC(=O)NC(c1ccc(OC)cc1)c1ccc2cccnc2c1O (stereo not drawn) | i | 0.36
CC1CCCN(C2(O)C(=O)Nc3ccc([N+](=O)[O-])cc32)C1 (stereo not drawn) | i | -0.63
O=C(/C=C/c1ccco1)NC(=S)Nc1cccc(C(=O)O)c1 | i | 1.7
O=C(NC1CCCCC1)N(CCO)Cc1cc2cc3c(cc2[nH]c1=O)OCCO3 | i | -0.42
COc1cccc(NC(=O)Nc2cccn(Cc3ccc(C)cc3)c2=O)c1 | i | -0.2
CCCC(C(=O)NCCC(C)C)N(Cc1ccccc1)C(=O)c1snc(C(N)=O)c1N (stereo not drawn) | i | -0.08
O=C(Nc1ccc(NC(=O)c2cccs2)cc1)c1ccc2ccccc2c1 | i | 1.4
CCCC(=O)NC(C)C(c1cccs1)N1CCN(C)CC1 (stereo not drawn) | i | 0.17
O=[N+]([O-])c1cccc(/C=N/Nc2nc(N3CCOCC3)nc(N3CCOCC3)n2)c1 | i | -1.1
Cc1ccc(SCCNC(=O)CN2C(=O)c3ccccc3S2(=O)=O)cc1 | i | 0.09
CCS(=O)(=O)c1ccc2oc(SCC(=O)NCCc3ccc(OC)cc3)nc2c1 | i | -2
COc1ccc(S(=O)(=O)N2CCN(C(c3ccccc3)c3ccccc3)CC2)cc1NC(C)=O | i | -0.15
COc1ccc(C(C)=O)cc1CSc1ccccn1 | i | 0.38
O=c1cc(CO)oc(C(Nc2cccc([N+](=O)[O-])c2)c2ccccn2)c1O (stereo not drawn) | i | -1.4
CCN(CC(=O)Nc1cc(Cl)ccc1C)C(=O)C1CCCCC1 | i | 3.8

# (continued)
SMILES | KCNQ2 block | KCNQ2 block baseline
CCCCn1c(SCC(=O)Nc2cc(C(F)(F)F)cc(C(F)(F)F)c2)nnc1C(CC)N(C)C (stereo not drawn) | i | -0.98
CCOc1cccc2sc(Nc3nc4ccc(NC(C)=O)cc4s3)nc12 | i | -0.49
Cc1cccc(NC(=O)CCSc2nc(C)cc(C)n2)c1 | i | -0.09
COC(=O)c1sccc1S(=O)(=O)Nc1ccc(S(N)(=O)=O)cc1 | i | 2.4
COc1ccc(CN2CCN(Cc3ccccc3)C(CCO)C2)cc1OC (stereo not drawn) | i | 2.5
c1cncc(CSc2ccc(-c3cccnc3)nn2)c1 | i | 1.3
CC1=Nc2ccccc2N=C(NC(=O)/C=C/C(=O)O)C1c1ccccc1 (stereo not drawn) | i | 0.58
CC(C)(C)C(=O)Nc1nnc(SCc2cccc(F)c2)s1 | i | -0.81
O=C(O)CN1C(=O)c2ccc(Oc3ccc4c(c3)C(=O)N(CC(=O)O)C4=O)cc2C1=O | i | 0.28
Cc1ccccc1-c1nc(CS(=O)(=O)CC(=O)NCc2ccc(F)cc2)c(C)o1 | i | 1.2
O=C(NCCN1CCOCC1)c1cn(CCc2ccccc2)nn1 | i | 0.03
COc1ccc(N2C(=O)CCC(C(=O)NCc3ccccn3)C2c2ccc(F)cc2)cc1 (stereo not drawn) | i | 1.9
COc1ccc(NC(=O)Nc2cccs2)cn1 | i | 0.49
CCCN(CC(=O)Nc1ccccc1OC)C(=O)CCC(=O)c1ccc(F)cc1 | i | -1.9
O=C(NCc1nnc(SCC(=O)N2CCCC2)o1)c1c(F)cccc1Cl | i | 3.1
Cc1ccc(CNC(=O)CN(C(=O)C2(C)CC(=O)N=C3C=CC=CN32)c2ccccc2F)cc1 (stereo not drawn) | i | 0.08
CC(NC(=O)c1cc2c(cc1Cl)N1CCCCCC1=NS2(=O)=O)c1ccc(S(N)(=O)=O)cc1 (stereo not drawn) | i | -1.8
CCOc1ccc(CN(C)C(=O)CNC(=O)c2ccc3ccccc3c2)cc1OC | i | 0.02
CCCNc1nc(=S)n(-c2ccccc2)c(C)c1C(C)=O | i | 1.9
O=C1CN=C(Nc2cccc(C(F)(F)F)c2)N1C1CCCC1 | i | 2.8
COc1cccc(-c2nn(C)c3sc(C(=O)NCc4ccc(C)o4)cc23)c1 | i | -1.6
Cc1nonc1NC(=O)CSc1nnc(-c2ccoc2C)n1CC(C)C | i | 2.2
O=C(Oc1cccc(-n2cnnn2)c1)c1ccccc1 | i | 0.53
CC1(C)S[C@@H]2[C@H](NC(=O)COc3ccccc3)C(=O)N2C1C(=O)OCc1cc2ccccc2n1S(=O)(=O)c1ccccc1 (stereo partly drawn) | i | -1.6
CCN(CC)S(=O)(=O)c1cccc(C(=O)NNC(=O)c2ccc3[nH]c(=O)c(=O)[nH]c3c2)c1 | i | 0.13
O=C(Nc1c(C(=O)Nc2cccc3ccccc23)cnn1-c1ccccc1)c1ccco1 | i | 0.1
COc1ccc2sc(NCc3ccccc3)nc2c1 | i | 0.82
CCn1c(=N)n(CC(O)c2ccccc2)c2ccccc21 (stereo not drawn) | i | 0.14
Cc1cccc(C)c1NC(=O)CN(C)CC(=O)Nc1ccccc1Br | i | 0.44
CC(=O)c1ccc(NC(=O)CSc2ccc(-c3ccco3)nn2)cc1 | i | 0.12

# Record cards (already shown). Screens in order: KCNQ2 block	KCNQ2 block baseline
# O=C1CN=C(Nc2cccc(C(F)(F)F)c2)N1C1CCCC1 reads i	2.8
# O=C(Oc1cccc(-n2cnnn2)c1)c1ccccc1 reads i	0.53
# CC(=O)c1ccc(NC(=O)CSc2ccc(-c3ccco3)nn2)cc1 reads i	0.12
# CC1(C)S[C@@H]2[C@H](NC(=O)COc3ccccc3)C(=O)N2C1C(=O)OCc1cc2ccccc2n1S(=O)(=O)c1ccccc1 (stereo partly drawn) reads i	-1.6
# COc1cccc(-c2nn(C)c3sc(C(=O)NCc4ccc(C)o4)cc23)c1 reads i	-1.6

# (list continues)
SMILES | KCNQ2 block | KCNQ2 block baseline
Cc1ccnc(N2CCCC(C(=O)Nc3ccc(C)c(C)c3)C2)n1 (stereo not drawn) | i | -0.39
CC1=CC(=C(C#N)C#N)c2ccccc2N1C | i | -0.81
O=C(CSc1cccc[n+]1[O-])Nc1ccc2c(c1)OCCO2 | i | 0.53
CC1CCCCN1C/C=C/c1ccccc1[N+](=O)[O-] (stereo not drawn) | i | 0.26
Cc1nc2nc(SCC(=O)NCCCN3CCCCCC3)nn2c(C)c1Cc1ccccc1Cl | i | -0.64
CSc1cccc(NC(=O)CSc2ccc(Cl)cc2)c1 | i | 1.9
COc1ccc(-c2cc(C(=O)Nc3ccc(Cl)cc3Cl)c3ccccc3n2)cc1OC | i | -0.03
COc1ccc(NC(=S)NC(=O)c2cncc(Br)c2)c(OC)c1 | i | 0.54
CN(C)CCCN=Cc1c(O)n(Cc2ccccc2)c(=O)c2ccccc12 | i | 0.51
CCN(C(=O)c1cccnc1)c1ccccc1 | i | 1.8
CC(=O)c1c(C)oc2ccc(NS(=O)(=O)c3ccc(O)c(C(=O)O)c3)cc12 | i | 1.3
O=C([C@H](O)c1ccccc1)N1CCC[C@H]1CO | i | -0.3
C=CCn1c(N2CCOCC2)nc2c1c(=O)[nH]c(=O)n2C | i | 0.88
CCNc1nc(NC(C)(C)C)nc(N2CCCC2)n1 | i | 1.1
COC(=O)c1sccc1NC(=O)c1ccccc1 | i | -0.03

# Overlap with the part before: 2 entries; new compounds follow.
SMILES | KCNQ2 block | KCNQ2 block baseline
CCNc1nc(NC(C)(C)C)nc(N2CCCC2)n1 | i | 1.1
COC(=O)c1sccc1NC(=O)c1ccccc1 | i | -0.03
COc1cc(OC)cc(C(=O)OCC(=O)N(C)c2ccccc2)c1 | i | 3.2
C=CCNC(=O)c1onc(CSc2cc(C)cc(C)c2)c1C(=O)NCC=C | i | -1.6
Cc1ccc(S(=O)(=O)Nc2ccc(SC(F)F)cc2)c(C)c1 | i | 0.39
CCC1CCC/C1=N\NC(=O)c1cc(C)[nH]n1 (stereo not drawn) | i | 4.5
C/C=C/c1ccc(OCC(O)CNCC(c2ccc(OC)cc2)N(C)C)c(OC)c1 (stereo not drawn) | i | -0.74
CCSc1nnc(NC(=O)C2CC(=O)N(Cc3ccc(C)cc3)C2)s1 (stereo not drawn) | i | 0.02
Cc1cccc(N=C2NC(=O)/C(=C/c3cccn3C)S2)c1 | i | 1.3
Cc1ccccc1OCCC(=O)N(CC(=O)Nc1ccccc1C(F)(F)F)Cc1ccco1 | i | 0.77
O=C(O)c1ccc(Nc2nc(-c3cccnc3)nc3ccccc23)cc1 | i | -0.86
O=C(O)CSCC(=O)Nc1ccc(S(=O)(=O)N2CCCCC2)cc1 | i | -0.12
COc1ccc(Cl)cc1NC(=O)CN(C)CC(=O)Nc1ccc(Br)cc1 | i | -0.2
Cc1ccc2c(c1)N(C(=O)c1ccco1)C(C)(C)c1ssc(=S)c1-2 | i | 0.54
CN(CC(=O)NC1CCCCC1)S(=O)(=O)c1ccc2c(c1)c(=O)n(C)c(=O)n2C | i | 2.4
COC(=O)c1ccccc1NC(=O)CCCCCn1nnc2ccccc2c1=O | i | -0.08

# Quoted from the listing.
# `COc1ccc(Cl)cc1NC(=O)CN(C)CC(=O)Nc1ccc(Br)cc1` in KCNQ2 block baseline is entered as -0.2
# `O=C(O)CSCC(=O)Nc1ccc(S(=O)(=O)N2CCCCC2)cc1` in KCNQ2 block baseline is entered as -0.12
# `CCC1CCC/C1=N\NC(=O)c1cc(C)[nH]n1` (stereo not drawn) in KCNQ2 block baseline is entered as 4.5
# `COc1cc(OC)cc(C(=O)OCC(=O)N(C)c2ccccc2)c1` in KCNQ2 block baseline is entered as 3.2
